# NOMO-1 viab: STK33 inhibitor candidate reducing NOMO-1 cell viability. hit rate 7.5% among 37,000. NOMO-1 AML viability, CellTiter-Glo luminescence, 72 h. inhibition, % (no concentration beside the values);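 active = most replicates above 80%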;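 note: wells of about 30 µL received 25 nL stock; 0% = median of vehicle wells and 100% = reference inhibitor level; the first replicate is given; inactives centre near 10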
# * = called active by the depositor. This is a subset, so the mix of outcomes need not match the whole.
entry	molecule	NOMO-1 viab
1	Cc1ccc(S(=O)(=O)N(C)C[C@H]2Oc3c(NC(=O)Nc4c(C)noc4C)cccc3C(=O)N([C@H](C)CO)C[C@H]2C)cc1	-14
2	O=C(CSc1nnnn1-c1ccccc1)Nc1cc(Cl)ccc1C(=O)O	0
3	C[C@H]1CN([C@@H](C)CO)C(=O)c2cc(NC(=O)Nc3ccccc3)ccc2O[C@@H]1CN(C)CC1CCCCC1	9
4	C[C@H](CO)N1C[C@H](C)[C@@H](CN(C)Cc2ccc(Oc3ccccc3)cc2)Oc2ccc(NC(=O)C3CC3)cc2C1=O	36
5	CC(C)NC(=O)N(C)C[C@@H]1OCCCC[C@@H](C)Oc2ccc(NC(=O)Nc3ccc4c(c3)OCO4)cc2C(=O)N([C@H](C)CO)C[C@@H]1C	-11
6	Cc1cc(N(CC(=O)Nc2cc(C(F)(F)F)ccc2Cl)S(C)(=O)=O)ccc1Br	59
7	CNC[C@@H]1OCCCC[C@@H](C)Oc2ccc(NC(=O)NC3CCCCC3)cc2C(=O)N([C@H](C)CO)C[C@@H]1C	19
8	COc1ccc(CCNC(=O)c2cc3cc(Br)cc(OC)c3oc2=O)cc1OC	4
9	Cc1cc(N(CC(=O)NC2CC3CCC2C3)S(C)(=O)=O)ccc1Br (stereo unspecified)	-11
10	C[C@@H]1CN([C@@H](C)CO)C(=O)c2cccc(N(C)C)c2O[C@H]1CN(C)C(=O)Nc1ccc(F)cc1	4
11	COc1ccc(NC(=O)Nc2ccc3c(c2)CC(=O)N([C@H](C)CO)C[C@H](C)[C@H](CN(C)C(=O)Nc2c(C)noc2C)O3)cc1	-6
12	Cc1ccc(S(=O)(=O)N(C)C[C@@H]2Oc3c(NC(=O)C4CCOCC4)cccc3C(=O)N([C@H](C)CO)C[C@H]2C)cc1	17
13	Cn1c(COc2cccc3cccnc23)nnc1SCC(N)=O	2
14	CS(=O)(=O)N(CC(=O)NC1CCCCC1)c1ccc(F)cc1	32
15	COc1ccc(S(=O)(=O)Nc2cccc3c2O[C@H](CN(C)C(=O)Nc2c(C)noc2C)[C@H](C)CN([C@@H](C)CO)C3=O)cc1	-12
16	C[C@H]1CN([C@@H](C)CO)C(=O)c2cc(NS(=O)(=O)c3cn(C)cn3)ccc2O[C@H]1CN(C)Cc1ccc(C(=O)Nc2ccccc2N)cc1	3
17	C[C@@H]1CN([C@@H](C)CO)C(=O)Cc2cc(NC(=O)Cn3cnnn3)ccc2O[C@@H]1CN(C)Cc1ccc2c(c1)OCO2	0
18	Cc1nn(Cc2ccc(F)cc2)c(C)c1NC(=O)C1CC(c2c(F)cccc2Cl)=NO1 (stereo unspecified)	10
19	COc1ccc(NC(=O)N(C)C[C@@H]2Oc3ccc(NC(=O)Cn4cnnn4)cc3CC(=O)N([C@H](C)CO)C[C@@H]2C)cc1	8
20	C[C@@H]1CN([C@H](C)CO)C(=O)c2cc(NC(=O)Cn3cnnn3)ccc2O[C@@H]1CN(C)C	-16
21	COC(=O)C1=CO[C@@H](O[C@@H]2O[C@H](CO)[C@@H](O)[C@H](O)[C@H]2O)[C@@H]2[C@@](C)(O)[C@@H](O)C[C@]12O	27
22	C[C@@H]1CN([C@@H](C)CO)C(=O)c2cccc(NS(=O)(=O)c3cccs3)c2O[C@@H]1CN(C)CC1CC1	-2
23	Cc1cc(I)ccc1NC(=O)CN(c1cccc(F)c1)S(C)(=O)=O	5
24	CN1C2CCC1CC(NC(=O)Cc1ccccc1F)C2 (stereo unspecified)	5
25	Cc1noc(C)c1NC(=O)Nc1ccc2c(c1)CC(=O)N([C@H](C)CO)C[C@H](C)[C@H](CN(C)S(=O)(=O)c1ccc(Cl)cc1)O2	30
26	COc1ccc(C(=O)C(C)Oc2cccc(NC(=O)c3ccc([N+](=O)[O-])cc3)c2)cc1 (stereo unspecified)	53
27	COc1ccc(NC(=O)CN(C)S(=O)(=O)c2ccc(C)cc2)c([N+](=O)[O-])c1	30
28	CCc1c(C)sc(NC(=O)COc2ccc(Cl)cc2)c1C(N)=O	-17
29	COC(=O)COc1cccc(NC(=O)c2ccc(NC(=O)c3ccco3)cc2)c1	110*
30	C[C@@H]1CN([C@H](C)CO)C(=O)Cc2cc(NC(=O)NC3CCCCC3)ccc2O[C@@H]1CN(C)C(=O)Nc1cccc2ccccc12	16
31	Cc1cc(=S)nc(-c2ccccn2)[nH]1	112*
32	Cc1noc(C)c1S(=O)(=O)Nc1ccc2c(c1)CC(=O)N([C@H](C)CO)C[C@@H](C)[C@@H](CN(C)C(=O)Nc1cccc3ccccc13)O2	20
33	O=C(CSc1nnc(-c2ccc(Cl)cc2)o1)Nc1ccccc1C(F)(F)F	10
34	C[C@H]1CN([C@@H](C)CO)C(=O)c2cccc(NC(=O)NC3CCCCC3)c2O[C@H]1CN(C)C(=O)Nc1ccccc1	15
35	C[C@H](CO)N1C[C@H](C)[C@H](CN(C)C(=O)Nc2cccc3ccccc23)Oc2ccc(NC(=O)CCN3CCOCC3)cc2CC1=O	6
36	COc1ccc(NC(=O)Nc2ccc3c(c2)C(=O)N([C@H](C)CO)C[C@H](C)[C@H](CN(C)S(=O)(=O)c2cccs2)OCCCC[C@@H](C)O3)cc1	11
37	COc1ccc(CN(C)C[C@@H]2Oc3ccc(NS(=O)(=O)c4cccs4)cc3CC(=O)N([C@H](C)CO)C[C@H]2C)cc1	16
38	COc1cc2c(cc1OC)CN(C(=O)CSc1n[nH]c(N)n1)CC2	-16
39	COc1ccc(Cl)cc1NC(=S)NCc1ccccn1	28
40	Cc1nc(SCC(=O)Nc2sc3c(c2C#N)CCCC3)nc2c1CCCC2	27
41	CC(=O)N[C@@H](C(=O)O[C@H]1CCC(C)(C)[C@@H]2CCC3=C(COC3=O)[C@@]12C)C(C)C	25
42	N#Cc1cnc(SCC(=O)NC(=O)Nc2ccccc2)nc1N	-19
43	CCc1ccc(NC(=O)CSc2nnc(-c3ccc(Br)cc3)o2)cc1	-28
44	COc1cc2c(cc1OC)C1(CCCC1)CN(C(=O)c1cc(Br)ccc1OC)C2	49
45	C[C@@H]1CN([C@@H](C)CO)C(=O)c2cccc(NS(=O)(=O)c3ccc(Cl)cc3)c2O[C@H]1CN(C)C	5
46	NC(=O)c1ccccc1NC(=O)CCCN1C(=O)c2ccccc2C1=O	-21
47	Cc1cccc(NC(=O)C2Sc3nnc(-c4ccccc4)n3NC2c2ccccc2)c1 (stereo unspecified)	48
48	CSc1ccccc1NC(=O)CN(c1cccc(F)c1)S(C)(=O)=O	9
49	C[C@H](CO)N1C[C@H](C)[C@H](CN(C)Cc2ccc(-c3ccccc3)cc2)Oc2ccc(NC(=O)Nc3ccc4c(c3)OCO4)cc2CC1=O	38
50	Cc1cccc(OCC(=O)Nc2ccccc2N2CCN(S(C)(=O)=O)CC2)c1C	6
51	CC(C)NC(=O)Nc1ccc2c(c1)CC(=O)N([C@H](C)CO)C[C@@H](C)[C@@H](CN(C)C(=O)NC1CCCCC1)O2	1
52	C[C@@H]1CCCCO[C@@H](CN(C)C)[C@@H](C)CN([C@H](C)CO)C(=O)c2cc(NS(=O)(=O)c3ccc(Cl)cc3)ccc2O1	5
53	C[C@H](CO)N1C[C@H](C)[C@H](CN(C)C(=O)Nc2cccc3ccccc23)Oc2ccc(NC(=O)c3ccncc3)cc2C1=O	18
54	C[C@H]1CN([C@@H](C)CO)C(=O)c2cc(NC(=O)Nc3cccc4ccccc34)ccc2O[C@H]1CN(C)S(=O)(=O)c1cccs1	-1
55	C[C@H](CO)N1C[C@H](C)[C@H](CN(C)Cc2ccc(Oc3ccccc3)cc2)Oc2ccc(NS(=O)(=O)c3cccs3)cc2C1=O	48
56	C[C@@H]1CN([C@@H](C)CO)C(=O)Cc2cc(NC(=O)c3ccncc3)ccc2O[C@@H]1CN(C)Cc1ccc(C(=O)O)cc1	22

# Next results follow.
entry	molecule	NOMO-1 viab
57	COc1ccc(C(=O)O)cc1NC(=S)NC(=O)COc1ccc(Br)cc1	13
58	Cc1noc(C)c1NC(=O)Nc1ccc2c(c1)C(=O)N([C@H](C)CO)C[C@H](C)[C@@H](CN(C)Cc1ccc(Oc3ccccc3)cc1)O2	13
59	COc1ccc(NC(=O)CNS(=O)(=O)c2ccccc2)cc1Cl	-3
60	COC(=O)c1ccccc1NC(=O)COc1c(Cl)cc(Cl)c2ccccc12	-5
61	CC(=O)Nc1cccc(-c2nnc(SCC(=O)Nc3ccc(C(C)=O)cc3)n2C)c1	26
62	CCOc1ccc(NC(=O)CSc2nc(C)nc3sc4c(c23)CCCC4)cc1	28
63	CC1=C(C(=O)OCc2ccccc2)C(c2ccccc2)NC(=O)N1C (stereo unspecified)	-9
64	CCC1SC2=NCN(c3ccccc3)CN2C1=O (stereo unspecified)	101*
65	C[C@@H]1CN([C@H](C)CO)C(=O)c2cc(NC(=O)c3ccncc3)ccc2O[C@H]1CN(C)Cc1ccc(-c2ccccc2)cc1	93*
66	CSC(=O)OCC1=C[C@H](O)[C@@H]2C(C(=O)O)=CO[C@@H](OC3OC(CO)C(O)C(O)C3O)[C@H]12 (stereo partly specified)	18
67	Cc1nn(Cc2ccc(Br)cc2)c(C)c1NC(=O)Cn1nc(C(F)(F)F)c2c1CCCCC2	34
68	C=CC(C)(C)[C@@]12C[C@H]3C(=O)Nc4ccccc4C(=O)N3[C@@H]1Nc1ccccc12	92*
69	Cc1cc(O)cc2c(=O)oc(CC(C)O)cc12 (stereo unspecified)	39
70	c1ccc(-c2cnc(SCc3nc4ccccc4[nH]3)[nH]2)cc1	20
71	Cc1nc(-n2nnc3cc(C)c(C)cc32)c2c3c(sc2n1)CCCC3	14
72	C[C@H]1CN([C@@H](C)CO)C(=O)Cc2cc(NS(C)(=O)=O)ccc2O[C@H]1CN(C)Cc1ccc(Oc2ccccc2)cc1	6

# From compound 61 as far as 72, as listed above:
entry	molecule	NOMO-1 viab
61	CC(=O)Nc1cccc(-c2nnc(SCC(=O)Nc3ccc(C(C)=O)cc3)n2C)c1	26
62	CCOc1ccc(NC(=O)CSc2nc(C)nc3sc4c(c23)CCCC4)cc1	28
63	CC1=C(C(=O)OCc2ccccc2)C(c2ccccc2)NC(=O)N1C (stereo unspecified)	-9
64	CCC1SC2=NCN(c3ccccc3)CN2C1=O (stereo unspecified)	101*
65	C[C@@H]1CN([C@H](C)CO)C(=O)c2cc(NC(=O)c3ccncc3)ccc2O[C@H]1CN(C)Cc1ccc(-c2ccccc2)cc1	93*
66	CSC(=O)OCC1=C[C@H](O)[C@@H]2C(C(=O)O)=CO[C@@H](OC3OC(CO)C(O)C(O)C3O)[C@H]12 (stereo partly specified)	18
67	Cc1nn(Cc2ccc(Br)cc2)c(C)c1NC(=O)Cn1nc(C(F)(F)F)c2c1CCCCC2	34
68	C=CC(C)(C)[C@@]12C[C@H]3C(=O)Nc4ccccc4C(=O)N3[C@@H]1Nc1ccccc12	92*
69	Cc1cc(O)cc2c(=O)oc(CC(C)O)cc12 (stereo unspecified)	39
70	c1ccc(-c2cnc(SCc3nc4ccccc4[nH]3)[nH]2)cc1	20
71	Cc1nc(-n2nnc3cc(C)c(C)cc32)c2c3c(sc2n1)CCCC3	14
72	C[C@H]1CN([C@@H](C)CO)C(=O)Cc2cc(NS(C)(=O)=O)ccc2O[C@H]1CN(C)Cc1ccc(Oc2ccccc2)cc1	6

# More compounds follow:
entry	molecule	NOMO-1 viab
73	CC(=O)Nc1ccc(NC(=O)c2cccc(C(=O)OC(C)C)n2)cc1	107*
74	C[C@@H]1CN([C@@H](C)CO)C(=O)c2cccc(NS(=O)(=O)c3ccc(F)cc3)c2O[C@H]1CN(C)Cc1ccc(C(=O)Nc2ccccc2N)cc1	45
75	O=C(CC1(O)C(=O)Nc2ccc(F)cc21)c1ccco1 (stereo unspecified)	38
76	COc1ccc(OC)c(S(=O)(=O)N2CCC(C(=O)Nc3ccccc3SC)CC2)c1	13
77	C[C@H](CO)N1C[C@H](C)[C@@H](CN(C)Cc2ccc3c(c2)OCO3)Oc2ccc(NC(=O)Nc3ccc4c(c3)OCO4)cc2C1=O	35
78	CC(=O)Nc1nonc1-c1nc2ccccc2n1Cc1cccc2ccccc12	118*
79	CCc1cc(C(=O)OC)c(NC(=O)c2cc(-c3ccccn3)nc3ccc(Cl)cc23)s1	-16
80	Cc1ccc2nc(-c3cccnc3)cc(C(=O)Nc3ccc(CC(=O)O)cc3)c2c1	-30
81	C[C@H]1CN([C@@H](C)CO)C(=O)c2cccc(NC(=O)Nc3cccc4ccccc34)c2O[C@H]1CN(C)Cc1ccc(Oc2ccccc2)cc1	93*
82	C[C@H](CO)N1C[C@H](C)[C@H](CN(C)Cc2ccc(C(F)(F)F)cc2)Oc2c(cccc2N(C)C)C1=O	4
83	CC(C)NC(=O)Nc1cccc2c1O[C@@H](CN(C)C(=O)Nc1ccc3c(c1)OCO3)[C@@H](C)CN([C@H](C)CO)C2=O	-2
84	Cc1ccc(S(=O)(=O)N(C)C[C@H]2Oc3c(NS(=O)(=O)c4cn(C)cn4)cccc3C(=O)N([C@@H](C)CO)C[C@H]2C)cc1	8
85	CC(C)NC(=O)N(C)C[C@H]1Oc2c(NC(=O)Nc3ccc(F)cc3)cccc2C(=O)N([C@@H](C)CO)C[C@@H]1C	4
86	COc1ccc([N+](=O)[O-])cc1NC(=O)CS(=O)(=O)Cc1ccccc1	-17
87	CC1CN(c2nc3ccccc3nc2SCC(=O)Nc2ccccc2)CC(C)O1 (stereo unspecified)	88*
88	CC(C)=CCc1c(O)ccc2c1OC(c1ccc(O)c(O)c1)CC2=O (stereo unspecified)	72
89	Cc1sc2nc(SCC(=O)NCC3CCCO3)n(-c3ccccc3)c(=O)c2c1C (stereo unspecified)	6
90	C[C@@H]1CCCCO[C@@H](CN(C)S(C)(=O)=O)[C@@H](C)CN([C@H](C)CO)C(=O)c2cc(NS(=O)(=O)c3ccc(F)cc3)ccc2O1	15
91	N#Cc1ccccc1CSc1nnc(-c2ccco2)n1-c1ccccc1	-17
92	C[C@H](CO)N1C[C@H](C)[C@H](CN(C)S(=O)(=O)c2ccc(F)cc2)Oc2ccc(NC(=O)Nc3ccc4c(c3)OCO4)cc2C1=O	22
93	CCN(CC(=O)O)S(=O)(=O)c1ccc(C)cc1	11
